Bioassay records deposited in PubChem by ICCB-Longwood Screening Facility, Harvard Medical School.
LANA-nucl inh: inhibitors of KSHV LANA binding to nucleosomes; FITC-LANA1-23 / chicken nucleosome fluorescence polarization; hits give low values; z-score (concentration not given with the values); 0.3% of 51,000 active; AID 720717;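 active = both repeat wells score below -2 in polarization z-score versus plate sample wells, excluding overly bright wells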;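 also: 100 nL library stock added to about 30 µL; numbers are from one replicate; some results filed as inactive read as strong as hits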
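Test system: purified chicken nucleosomes with FITC-labelled LANA N-terminal peptide (1-23); Input: 240 nM purified chicken nucleosomes (480 nM peptide binding sites), final; Medium: TEN-BT buffer, pH 7.5; Timing: 10–45 min, room temperature; Technique: fluorescence polarization, 480 nm excitation, 535 nm parallel and perpendicular emission; Replication: duplicates.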
Ab BasE inh: blocks the Acinetobacter baumannii siderophore enzyme BasE; purified BasE, fluorescence polarization binding displacement; inhibition, % (concentration not given with the values); 0.1% of 84,000 active;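 active = both replicates above 25% with normal brightness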;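 also: 0% = negative plate control signal and 100% = positive plate control signal; stock transfer was 100 nL into about 30 µL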
Active calls of the source: *; . = no result given; & = joins results of further samples.

Results follow in this order: LANA-nucl inh, Ab BasE inh
CC1CCCCC1NC(=O)c1ccc(CS(=O)(=O)c2cccc(C(F)(F)F)c2)o1 (stereo not given)
 : 0.32, 1.9
O=C(Nc1ccc(Br)cn1)Nc1ccccc1C(F)(F)F
 : 0.79, -0.9
O=C(O)CCc1n[nH]c(=S)[nH]c1=O
 : -0.16, 0.5
COc1ccccc1C(=O)NNc1ncccc1C(F)(F)F
 : 0.11, 1.9
O=S(=O)(NC1CCCC1)c1ccc(-n2cnnn2)cc1
 : -0.37, 1.7
NC(=NC(=O)c1ccc(Cl)cc1)N1N=CCC1c1ccccc1 (stereo not given)
 : 0.66, -1.4
O=C(CSc1nnc(C2CC2)n1C1CC1)c1ccc(CC(=O)N2CCOCC2)s1
 : ., 0.9
COCCNC(=O)C1CCC(C(=O)NCCOC)CC1 (stereo not given)
 : 1.9, 0.9
COc1ccc2nc(SC/C(O)=C(\C#N)C(=O)NCc3ccccc3)[nH]c2c1
 : ., -0.4
CC(C)c1ccc(NC(=O)C2CC(=O)Nc3nc4ccccc4n32)cc1 (stereo not given)
 : -0.58, -0.2
COc1ccc(C2CC(c3ccccc3)=NN2C(=O)Cn2c(NCCO)nc3ccccc32)cc1 (stereo not given)
 : ., 0.1
CCc1ccc(NC(=O)c2ccccc2)cc1
 : -0.43, 5.3
Cc1ccc(C(=O)Nc2ccc(-c3nc4cc(C)ccc4o3)cc2)cc1
 : 0.91, -3.0
CC(=O)NCCC(=O)Nc1ccc(F)cc1C
 : ., 0.5
CC(=O)Nc1ccc(Sc2ccc(F)cc2)cc1
 : 0.15, .
CCOC(=O)c1cc(C(=O)OC)c(C)nc1SCC(=O)OC
 : ., 1.0
N#CC(C(=O)C(F)(F)F)c1ccccc1 (stereo not given)
 : 0.69, 1.0
NC(=S)NC12CC3CC(CC(C3)C1)C2
 : 0.0005, 0.9
O=C(NC(=S)NCc1ccco1)c1ccc(Cl)cc1
 : -0.86, 3.1
CC1=CC(C)(C)NC(=S)N1c1ccccc1
 : -0.076, 0.8
CN1N=C2c3ccccc3CCC2C1c1ccc(F)cc1 (stereo not given)
 : ., 1.4
CCc1cc(=O)oc2c(C)c(O)ccc12
 : ., 1.2
NS(=O)(=O)c1ccc(NC(=S)NC2CCCCC2)cc1
 : 0.21, -2.1
CCn1c(CCC(=O)Nc2nc3ccccc3[nH]2)nc2cc(S(=O)(=O)N(C)C)ccc21
 : ., 2.6
O=C(CSc1nnc(CNC(=O)c2c(F)cccc2Cl)o1)NC1CCCCC1
 : -0.13, 2.1
Cc1ccc(CNC(=O)c2oc3ccc(S(=O)(=O)N4CCCC4)cc3c2C)cc1
 : 0.17, 0.7
O=S(=O)(c1ccc2c(c1)CCO2)N1CC=C(c2ccccc2)CC1
 : -0.96, .
CCc1ccc(C(N)CC(=O)O)cc1 (stereo not given)
 : 0.88, .
COc1cccc(Cn2ccn(Cc3ccccc3)c(=O)c2=O)c1
 : 0.75, -0.1
Clc1cccc(Cl)c1Cn1nnc(-c2ccccc2)n1
 : 0.14, -0.3
O=C(O)/C=C/C(=O)N1CCN(Cc2ccccc2)CC1
 : 0.51, 0.5
c1ccc(-c2nn3cnnc3c3ccccc23)cc1
 : ., 1.3
O=C(O)c1cccc(S(=O)(=O)Nc2ccc(O)cc2)c1
 : 0.19, 3.6
COc1ccccc1NC(=O)Cc1noc(COC(=O)c2c(F)cccc2Cl)n1
 : ., 0.6
N/C(=N\c1nc(=O)c2ccccc2s1)NC(=O)c1ccc(Cl)c(Cl)c1
 : ., 2.0
COc1ccccc1CN(C)C(=O)CSc1nc2sccc2c(=O)n1C
 : ., 0.2
CCN(CC)CC(=O)N1CCCC1=O
 : -0.75, 0.6
O=C(OCc1c(F)cccc1Cl)c1ccco1
 : 2.5, -1.9
CN=C(Nc1ccc(Cl)c(Cl)c1)c1ccco1
 : ., 0.1
O=C1CC(N2CCN(S(=O)(=O)c3cccs3)CC2)C(=O)N1CCc1ccccc1 (stereo not given)
 : ., 2.2
O=S(=O)(Nc1nnc(-c2ccc(Cl)cc2)o1)c1ccc2c(c1)OCCO2
 : ., -0.1
COc1ccc(-c2nc3cnccn3c2NCc2ccc3c(c2)OCO3)cc1CN1CCOCC1
 : 0.34, -0.8
CC(C)n1nc(C(C)(C)C)cc1C(C)(C)C
 : ., -0.2
Fc1cc2c(c(CSc3ccc(Cl)cc3)c1)OCOC2
 : ., 4.0
CCN=c1scc(C)n1/N=C/c1cccs1
 : ., 1.1
COc1ccc(-c2ccnc(SCc3ccc(Cl)cc3Cl)n2)cc1
 : ., 1.5
C=C1/C(=N/O)CC2CC1C2(C)C (stereo not given)
 : 0.36, 0.8
O=C(Nc1nc(-c2cccs2)cs1)C1CC(=O)N(c2ccc3c(c2)OCCO3)C1 (stereo not given)
 : ., 0.1
CC12CCC(=O)N1C(C(=O)NCC13CC4CC(CC(C4)C1)C3)CS2 (stereo not given)
 : ., 1.8
COc1ccccc1NC1CC(=O)N(c2cccc(Cl)c2)C1=O (stereo not given)
 : ., 2.3
CC(=O)Oc1ccc(-c2coc3cc(OC(C)=O)cc(OC(C)=O)c3c2=O)cc1
 : ., 0.1
O=C(NCCc1ccc(Cl)cc1)c1cnn(-c2ccc(Cl)cc2)c1C(F)(F)F
 : ., 4.1
C=CCn1c(=O)[nH]c2nc3cc(N=CN(C)C)ccc3nc2c1=O
 : -5.8*, 26
Cc1noc(C)c1NC(=O)NCc1csc(-c2cccs2)n1
 : -0.83, -1.1
CC(=O)Nc1cccc(OCCCNS(=O)(=O)c2ccc(F)cc2)c1
 : -0.3, 0.8
CCOc1cc(/C=N/n2c(C)csc2=NC(C)C)ccc1O
 : ., 2.8
Cc1ccc(F)c(NC(=O)C2CCCCC2C(=O)O)c1 (stereo not given)
 : -0.26, 1.6
Cc1ccc2c(c1)C(c1ccccc1)CC(C)N2S(=O)(=O)c1cccc(Cl)c1 (stereo not given)
 : ., 0.8
O=C(Nc1nccs1)c1cccc(S(=O)(=O)N2CCc3ccccc32)c1
 : ., 2.1
C=CCn1c2ccccc2c2nn(C)c(=S)nc21
 : ., -1.5

Entries above marked active in LANA-nucl inh.
Compound	LANA-nucl inh
C=CCn1c(=O)[nH]c2nc3cc(N=CN(C)C)ccc3nc2c1=O	-5.8*

The results go on.
Results follow in this order: LANA-nucl inh, Ab BasE inh
CCSc1nnc(C2CCCN(C(=O)NCc3ccccc3)C2)n1C (stereo not given)
 : -0.43, 1.6
Cc1csc(=O)n1CCC(=O)OCC(=O)NC1CCS(=O)(=O)C1 (stereo not given)
 : ., 0.0
CCOC(=O)Cn1c(=O)c2cnc3c(c(C)nn3C)c2n1C
 : ., -0.5
Cc1ccccc1C(=O)c1cccn1CC(=O)NCCCN1CCOCC1
 : 0.84, 1.9
CC(NC(=O)NC1CCCCC1)C(c1ccccc1)N1CCOCC1 (stereo not given)
 : ., 1.2
CCCCn1c(C)c(C)c(S(=O)(=O)c2ccccc2)c1N
 : 0.37, -4.6
Cc1ccc(Cn2cc3c(n2)-c2c(oc(C(=O)Nc4cc(C)ccc4C)c2C)CC3)cc1
 : 0.1, 1.2
COc1ccc(/C(O)=C2\C(=O)C(=O)N(CCCN(C)C)C2c2cc(OC)c(OC)c(OC)c2)cc1Cl (stereo not given)
 : 1.9, -4.8
O=C(NCc1ccccc1)C(c1ccco1)N(C(=O)c1csnn1)c1ccccc1 (stereo not given)
 : -1.1, -1.1
Cc1cc(C)c2c(c1)/C(=N\OCC(=O)N1CCCc3ccccc31)C(=O)N2
 : ., 1.0
CN1CCCN(C(=O)C2CCCCN2S(=O)(=O)c2ccccc2)c2nc3ccccc3nc21 (stereo not given)
 : ., 0.4
CCOc1ccc2nc(N3CCC(C(=O)N4CCCC4)CC3)sc2c1
 : -1.1, 2.4
CCOC(=O)N1CCC(NC(=O)c2sc3ccccc3c2Cl)CC1
 : -1.1, .
c1csc(CNc2nc(-c3cccs3)nc3ccccc23)c1
 : ., -1.3
O=C(O)CCn1c(SCCOc2ccccc2)nc2ccccc21
 : ., 1.3
COc1ccc(N2C(=O)/C(=C\c3ccco3)N=C2SCC(=O)c2cc(C)n(C)c2C)cc1Cl
 : ., -2.0
Oc1ccccc1C1OCC(C2CC=CCC2)CO1 (stereo not given)
 : 1.5, -3.3
OCC#CCSc1nc2ccccc2n1Cc1ccccc1
 : -0.79, -2.1
Cc1cc(Oc2ccc3c(c2)OCO3)nc2ccccc12
 : ., 6.2
Cc1ccc(S(=O)(=O)NCCC#N)cc1
 : ., 0.6
COc1ccc(C(OCC(O)CN2CCC(C(N)=O)CC2)c2ccc(OC)cc2)cc1 (stereo not given)
 : ., -4.7
CCC1(C)CC2=C(CO1)Cc1c(nc(SCC(=O)Nc3ccc(C)cc3)n(-c3ccccc3)c1=O)N2 (stereo not given)
 : 0.18, 3.8
CCOc1ccc2nc(NCCCNS(=O)(=O)c3ccccc3)c(C#N)cc2c1
 : 2, -4.5
Cc1cc(C(F)(F)F)c2c(C)cc(=O)n(C)c2n1
 : ., 1.1
CC1(C)Cc2c(sc3nc(Nc4ccccc4)[nH]c(=O)c23)CO1
 : 0.42, 7.4
CC(C)(C)c1cc(C(=O)N2CCc3ccccc3C2)ccn1
 : 0.53, 4.4
S=c1[nH]nc(-c2ccc3c(c2)OCO3)o1
 : ., 2.4
NNC(=O)COc1ccccc1
 : ., -1.7
COc1ccc(NC(=O)CCNS(=O)(=O)c2cccc3nonc23)cc1Cl
 : 0.13, 4.5
CCn1c(CSc2ncccn2)nnc1SCC(=O)N1CCCCC1
 : 0.51, 3.6
O=c1nc2n(c3ccccc13)Cc1ccccc1-2
 : ., 2.3
CCN=c1scc(-c2cccs2)n1/N=C(\C)CC
 : ., -15
O=C(N/N=C/c1ccco1)c1ccc(Br)o1
 : 1.2, -3.1
CCOC(=O)N1CCC(=NNc2nc3ccccc3s2)CC1
 : ., 1.6
CN(CCc1ccccn1)S(=O)(=O)c1ccc2c(c1)CCO2
 : -0.7, .
c1cc2c(cc1NC1CC3CCC1C3)OCO2 (stereo not given)
 : 0.33, 3.4
CN1CCN(C2=Nc3cc(Cl)ccc3Nc3ccccc32)CC1
 : -0.086&0.15&-0.4&-0.17&-0.71, -1.2&-2.1&2.5
O=C(CSc1ncccc1C(=O)O)c1cccc(C(F)(F)F)c1
 : ., 2.8
CSC1=N/C(=C\c2ccc(C)o2)C(=O)S1
 : 0.56, 1.7
Cc1oc2cc(OC(C)C)ccc2c(=O)c1Oc1ccccc1
 : 0.93, -0.3
Cn1cnc2c(oc3ccccc32)c1=O
 : 0.39, -1.4
Cc1cccn2c(=O)c(/C=N/NC(N)=O)c(NCc3ccco3)nc12
 : 2.6, 0.4
O=C(NC1=NCCCN1)c1c(Cl)cccc1Cl
 : ., 4.1
C(=N\c1sc2c(c1-c1nc3ccccc3s1)CCCC2)/c1ccco1
 : ., 2.4
CC1=NC(C(F)(F)F)(C(F)(F)F)C(C#N)=C(C)N1
 : -0.86, 3.5
CCc1ccc2c(c1)c1n[nH]c(=S)nc1n2CC
 : -0.083, 2.5
COC(=O)c1cc(NCc2ccccc2)ccc1N1CCOCC1
 : 0.62, 0.8
O=C(Oc1ccc(-c2nnco2)cc1)c1oc2ccccc2c1COc1ccccc1
 : ., -1.6
CCCCn1c(SCC(=O)Nc2ccccc2)nc2ccccc2c1=O
 : 0.71, -0.6
COc1ccc(N2CCN(C(=O)C3(S(=O)(=O)c4ccc(C)cc4)CC3)CC2)cc1
 : 0.4, 2.4
COC(=O)c1ccc(COC(=O)c2c(C)nn(Cc3ccccc3Cl)c2Cl)o1
 : ., -1.1
O=C(O)CCN1C(=O)/C(=C/c2ccc(-c3ccc(Cl)cc3Cl)o2)SC1=S
 : ., 0.9
C=CCNC(=O)C1(c2cccs2)CCOCC1
 : 0.0015, 5.0
CC(C)c1ccc(S(=O)(=O)N2CCN(CC(=O)C(C)(C)C)CC2)cc1
 : 0.82, 0.9
Cc1cc(C)cc(NC(=O)Cn2cnc3c(nnn3Cc3ccc(F)cc3)c2=O)c1
 : -1.6, -0.2
O=C(c1ccccc1)c1cnn(-c2ccc(Cl)cc2)n1
 : ., -0.2
Cc1cc(NC(=O)COC(=O)C2CCN(S(=O)(=O)c3ccc(C(C)C)cc3)CC2)no1
 : ., -0.5
CCC(Sc1nc2nccnc2c(=O)n1Cc1ccccc1)C(=O)NC1CCCCC1 (stereo not given)
 : 1.1, 2.5
O=C(O)CSc1nc2ccc(C(=O)c3ccccc3)cc2[nH]1
 : -0.72, .

A section of the results above, for reference:
Results follow in this order: LANA-nucl inh, Ab BasE inh
CCC(Sc1nc2nccnc2c(=O)n1Cc1ccccc1)C(=O)NC1CCCCC1 (stereo not given)
 : 1.1, 2.5
O=C(O)CSc1nc2ccc(C(=O)c3ccccc3)cc2[nH]1
 : -0.72, .

One compound at a time, as listed above.
Shown for O=C(Oc1ccc(-c2nnco2)cc1)c1oc2ccccc2c1COc1ccccc1 = LANA-nucl inh = .; Ab BasE inh = -1.6
Shown for O=C(O)CCN1C(=O)/C(=C/c2ccc(-c3ccc(Cl)cc3Cl)o2)SC1=S = LANA-nucl inh = .; Ab BasE inh = 0.9

Only part of the results is shown; count on the stated rates, not on these rows.
